eIF4H inh: inhibitors of RNA binding by human eIF4H; eIF4H fluorescence polarization binding assay; AID 2012; hit rate 0.94% among 290,000; Q15056; inhibition, % at 35 µM;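 active = 50% or more with normal probe brightness, or confirmed in later tests; inconclusive = above 50% with abnormal brightness, or retests that disagree; inactive = below 50% or failed in later tests; about a fifth of its hits are not listed in these tables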;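 note: calls also rest on retests at 20 µM and on dose response follow-up; 0% = protein and probe with vehicle and 100% = probe without protein; strong numbers were not always called active; many hits fall short of the cut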
Yeast UUG start: alters start codon recognition fidelity in yeast. activity score, % at 18.7 µM. hit rate 0.13% among 350,000. S. cerevisiae UUG-firefly luciferase reporter, luminescence/redox ratio. AID 602363;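 active = replicate mean at a twofold rise or more, about +100% in these data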;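 note: firefly luciferase made from a UUG start codon reports start codon fidelity; reporter light over untreated wells divided by growth signal over untreated wells; some hits fall short of that in this replicate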
PABP polyA inh: PABP-poly(A) binding inhibition; P11940; inhibition, % at 35 µM; hit rate 1% among 290,000; PABP-poly(A) RNA binding, fluorescence polarization;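 active = 50% or more with normal probe brightness, or confirmed in later tests; inconclusive = above 50% with abnormal brightness, or retests that disagree; inactive = below 50% or failed in later tests; about a fifth of its hits are not listed in these tables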;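 note: calls also rest on retests at 20 µM and on dose response follow-up; controls were probe without protein and protein plus probe with vehicle; some compounds called inactive have numbers as strong as hits; many hits fall short of the cut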
Target sequence (P11940 whole entry, looked up): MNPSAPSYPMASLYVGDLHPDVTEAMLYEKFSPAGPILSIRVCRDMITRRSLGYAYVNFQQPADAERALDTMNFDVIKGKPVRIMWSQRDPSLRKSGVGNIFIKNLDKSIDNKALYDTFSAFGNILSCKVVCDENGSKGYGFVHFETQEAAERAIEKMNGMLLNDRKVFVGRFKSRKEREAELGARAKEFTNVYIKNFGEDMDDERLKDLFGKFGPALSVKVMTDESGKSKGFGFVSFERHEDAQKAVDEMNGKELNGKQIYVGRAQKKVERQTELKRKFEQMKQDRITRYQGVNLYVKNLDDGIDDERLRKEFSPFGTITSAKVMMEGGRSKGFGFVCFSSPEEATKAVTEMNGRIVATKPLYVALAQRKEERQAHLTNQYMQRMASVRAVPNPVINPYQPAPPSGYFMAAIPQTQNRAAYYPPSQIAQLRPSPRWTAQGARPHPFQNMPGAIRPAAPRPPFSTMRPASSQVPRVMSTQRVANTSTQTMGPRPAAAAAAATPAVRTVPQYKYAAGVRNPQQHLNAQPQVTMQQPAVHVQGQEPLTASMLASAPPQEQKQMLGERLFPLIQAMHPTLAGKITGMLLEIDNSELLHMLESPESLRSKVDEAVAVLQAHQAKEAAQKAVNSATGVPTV
MT1-MMP act inh: blocks activation of human MT1-MMP; HT1080 RFP-PRO-GFP cells, GFP/RFP ratio fluorescence, overnight; percent of plate control window, DMSO zero; GFP/RFP ratio change, % at 20 µM; hit rate 0.061% among 360,000; AID 651647;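 active = GFP/RFP ratio change of at least 30% with cell ATP level not reduced by more than half and red fluorescence within 50% of control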; note: strong numbers were not always called active
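Material: RFP-PRO-GFP reporter HT1080 cells. Dosing: single-point 20 µM compound, 1% DMSO. Controls: DMSO and RFP-L50D-GFP cell wells. Timing: cells overnight before dosing, compound overnight, 37 °C, 5% CO2. Measure: GFP/RFP fluorescence ratio.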
CSC inhib: cancer stem cell inhibition; cancer stem cell-like cells viability, luminescence; inhibition, % at 7.5 µM; hit rate 1.1% among 300,000;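 active = mean at 75% or more and at least half the replicates too; inconclusive = mean and replicates disagree; tested in HMLE shEcad cells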;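 note: 0% = median of negative and 100% = median of positive control wells; the first replicate is given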
HIV Env fusion: HIV envelope-mediated fusion inhibition; hit rate 1.1% among 360,000; AID 651610; HeLa-JRFL Env/CEM21 cell fusion, luciferase; inhibition, % at 12.3 µM;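 active = mean replicate inhibition score of at least 50 and every replicate individually at or above 50; inconclusive = only one of the two criteria met; inactive = mean below 50 and not all replicates reaching 50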;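 note: 0% = plate neutral controls and 100% = maraviroc near 300 nM; one replicate is shown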
Rce1 inhib: yeast Ras-converting enzyme inhibition | Q03530 | yeast membranes, quenched prenylated peptide cleavage fluorescence | calls only | hit rate 0.27% among 290,000;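 active = fall in fluorescence gain of 50% or more versus controls, with final raw signal at or below 3038400; inconclusive = same 50% fall but final raw signal above 3038400; inactive = fall in fluorescence gain under 50%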;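 note: plate controls were neutral control wells for no effect and wells lacking membranes for full effect; tested at 10 µM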
MT1-MMP act inh RFP: further read-out of MT1-MMP act inh, marked with its call; RFP signal change, %; measured here: RFP expression control read;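 0 = vehicle wells; hits needed this value within 50% of zero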
Numbers without * were called inactive; i = inactive; ? = inconclusive; . = not tested or not shown. Only part of the results is shown; count on the stated rates, not on these rows.

SMILES	eIF4H inh	Yeast UUG start	PABP polyA inh	MT1-MMP act inh	MT1-MMP act inh RFP	CSC inhib	HIV Env fusion	Rce1 inhib
CCOC(=O)c1c(C)[nH]c(C(=O)OCC(=O)Nc2ccc(Cl)cn2)c1C	.	-6	.	4	1	-16	-4	.
Nc1nccnc1C(=O)OCC(=O)Nc1ccc2[nH]c(=O)[nH]c2c1	.	-2	.	-1	2	-4	9	i
CC1C(=O)Nc2ccc(S(=O)(=O)NCCc3ccc(Cl)cc3)cc2NC1=O (stereo not drawn)	32	-5	19	-1	-6	2	-1	i
CN1CCC(=NNC(=O)c2cn(-c3ccccc3)nc2-c2ccccc2)CC1	-3	-8	-10	1	6	2	2	i
CC(C)C(NC(=O)c1ccc(C(C)(C)C)cc1)C(=O)N1CCC(C(N)=O)CC1 (stereo not drawn)	.	-3	.	-1	1	.	4	.
COC(=O)c1ccc(C(=O)Nc2cc(Cl)ccc2Cl)cc1NC(=O)c1ccccc1C	-9	.	-16	-1	-1	-4	-3	i
CCNC(=O)C1(C)CCN(C(=O)c2ccccc2)C1 (stereo not drawn)	.	-15	.	-3	1	.	-25	.
O=C(N[C@@H](Cc1c[nH]c2ccccc12)C(=O)O)OCC1c2ccccc2-c2ccccc21	.	3	.	-1	2	.	36	.
Cn1cc(CN2CCCC(C(=O)Nc3cccc(-n4cccn4)c3)C2)cn1 (stereo not drawn)	-8	-10	-2	1	2	-1	-13	i
N#Cc1cc(C(=O)c2cc(Cl)ccc2O)cn(CC2CCCO2)c1=O (stereo not drawn)	0	-13	7	.	.	-4	.	i
O=C(CN1C(=O)NC(c2ccccc2)(c2ccccc2)C1=O)NC1CCS(=O)(=O)C1 (stereo not drawn)	.	-11	.	-4	-2	3	.	.
O=C(/C=C/c1cccc(F)c1)NCc1ccc2c(c1)OCO2	10	-5	-3	-2	0	-11	19	i
CCN(CC)C(=O)C(Oc1ccc(S(=O)(=O)N2CCCC2)cc1[N+](=O)[O-])c1ccccc1 (stereo not drawn)	-12	.	11	0	-1	-1	-10	i
Cc1ccc2nc(NC(=O)CCNS(=O)(=O)c3ccc(Br)s3)sc2c1	-3	.	3	0	-2	21	.	i
COc1ccc(-c2cn[nH]c2-c2ccc(OCc3ccccc3F)cc2O)cc1OC	6	-27	11	6	-26	64	8	i
COc1ccc(NC(=O)[C@@H]2CCCN2S(=O)(=O)c2ccccc2F)cc1S(=O)(=O)N1CCCCC1	.	7	.	4	-6	-11	?	.
COc1ccc(NC(=O)c2[nH]c(C)c(C(C)=O)c2C)cc1S(=O)(=O)Nc1ccc(Br)cc1	1	.	4	14	-5	10	21	i
CCc1cc(CC)c(/C=N/NC(N)=O)c(CC)c1	2	.	-4	-10	-7	-12	-11	i
Cc1cc(C)n(/N=C/c2ccccc2)c(=O)c1C#N	3	-29	6	5	0	.	.	i
CC1(C)CC(=O)C(C2(O)C(=O)N(Cc3ccccc3)c3ccccc32)CO1 (stereo not drawn)	-4	2	-10	6	1	8	-18	i
Cc1ncsc1C(=O)Nc1nc2c(s1)CCCC2	4	-1	15	4	0	45	.	i
Cc1cc([N+](=O)[O-])cc(C)c1OCC(=O)N/N=C/c1ccc(OC(=O)c2ccccc2)cc1	5	.	9	-3	0	-2	.	i
O=C(O)c1nc(-c2ccccc2)c(C(=O)NC2CC2)[nH]1	.	-20	.	1	5	.	23	.
NC(=S)C(c1ccccc1)c1ncc(C(F)(F)F)cc1Cl (stereo not drawn)	-5	-23	3	2	2	-8	-9	i
O=C(CC[C@H]1O[C@@H](n2ccc(=O)[nH]c2=O)[C@H](O)[C@@H]1O)NCc1ccco1	.	-20	.	1	2	.	17	.
CCC(C)NC(=O)c1cn(CC)c2cc(N3CCN(C(=O)c4ccco4)CC3)c(F)cc2c1=O (stereo not drawn)	.	-9	.	1	-1	-8	7	i
COc1ccc(C(=O)NC2CCCc3c2cnn3-c2cc(F)cc(F)c2)c(OC)c1OC (stereo not drawn)	8	23	2	-6	-2	26	-9	i
Cc1nc2ccccc2n1CC(=O)OCC(=O)NC1CC1	0	.	-15	2	6	.	-11	i
CCCN1CCN(C(=O)c2ccc(CS(=O)c3ccc(F)cc3)o2)CC1 (stereo not drawn)	-1	-18	-4	0	6	-8	2	i
CCOc1ccc(CN2CCN(Cc3cc4ccccc4[nH]3)CC2CCO)cc1 (stereo not drawn)	18	-11	-2	-4	4	.	-55	i

Profiles as entered above. Order of screens: eIF4H inh, Yeast UUG start, PABP polyA inh, MT1-MMP act inh, MT1-MMP act inh RFP, CSC inhib, HIV Env fusion, Rce1 inhib
CCCN1CCN(C(=O)c2ccc(CS(=O)c3ccc(F)cc3)o2)CC1 (stereo not drawn) is listed with -1, -18, -4, 0, 6, -8, 2, i
Cc1ncsc1C(=O)Nc1nc2c(s1)CCCC2 is listed with 4, -1, 15, 4, 0, 45, ., i

(cont.)
SMILES	eIF4H inh	Yeast UUG start	PABP polyA inh	MT1-MMP act inh	MT1-MMP act inh RFP	CSC inhib	HIV Env fusion	Rce1 inhib
CC(=O)N1c2ccccc2N(Cc2ccc([N+](=O)[O-])cc2)C(=O)C1(C)C	-1	.	-16	0	-4	0	-11	i
CC1CCC2(CC1)NC(=O)N(CC(=O)N1CCN(S(=O)(=O)c3ccccc3)CC1)C2=O (stereo not drawn)	2	-4	-3	-1	3	-6	11	i
O=C(CCS(=O)(=O)Cc1ccccc1)N1CCN(c2ccc([N+](=O)[O-])cc2)CC1	-6	-14	-15	3	-2	12	-6	i
CCOC(=O)/C(N=Nc1c(Br)cc(Br)cc1Br)=C(\C)O	12	-10	-9	-2	2	.	-320	i
O=C(Nc1ccc(Br)cc1)N1CCc2ccccc2C1	-3	-17	8	5	0	3	-48	i
COc1cccc(CC(=O)OCC(=O)N2CCN(c3ccc(F)cc3)CC2)c1	-5	12	1	2	3	-3	2	i
O=C(O)C1C2CCC(C2)C1C(=O)NCc1ccccn1 (stereo not drawn)	1	-30	-3	3	3	-14	.	i
O=C(/C=C/c1ccccc1)N1CCC(c2ccccc2)C1 (stereo not drawn)	9	-1	3	-1	-1	-7	.	i
CC1CCCC1/C(=N/O)c1ccccc1 (stereo not drawn)	3	-10	5	-3	1	-10	32	i
COc1ccccc1CNC(=O)c1nn(C)c2c1CS(=O)(=O)c1ccccc1-2	6	8	13	4	6	-14	-4	i
Cc1occc1-c1nnc(SCC(=O)N(C)c2ccccc2)n1C	.	0	.	2	7	-5	.	i
O=c1[nH]cnc2scc(-c3ccsc3)c12	0	-23	4	0	5	-9	.	i
CC(C)CCOCc1nc2sc3c(c2c(=O)[nH]1)CCC(C)C3 (stereo not drawn)	-4	-28	8	-2	-4	17	.	i
Nc1ccc(NC(=O)c2cccs2)c(Cl)c1	3	-25	1	0	2	11	.	i
Cc1c(NC(=O)COC(=O)CCC(=O)c2ccc(Cl)cc2)c(=O)n(-c2ccccc2)n1C	-2	-13	-23	-1	-2	.	6	i
CCN1CCN(CCC(=O)Nc2ccc(F)c(F)c2)CC1	28	-9	-6	-3	7	-5	-34	.
COc1cccc(C2c3[nH]c4ccccc4c3CCN2C(=O)c2ccccc2F)c1OC (stereo not drawn)	-8	1	6	-8	-9	30	-9	i
O=P1(NC2CCCCC2)OCC2(CO1)COP(=O)(NC1CCCCC1)OC2 (stereo not drawn)	.	-12	.	-1	0	.	6	.
Cc1ccc(OCCSc2nc3ccccc3n2CCC(=O)O)cc1	6	-3	5	1	2	-11	3	i
CCCS(=O)(=O)N1CCCC(C(=O)NCCCN2CCCC2=O)C1 (stereo not drawn)	-10	8	0	5	2	-2	.	i
CN(C)CCCN(C(=O)c1ccc(S(=O)(=O)N(C)C)cc1)c1nc2cc3c(cc2s1)OCO3	-7	-5	?	0	-1	-7	18	.
Cc1c(Cl)cccc1NC(=S)N(Cc1cccs1)C1CCCC1	-10	.	-6	3	3	7	21	i
Cc1ccc(NC2=NCC(=O)N2C2CCCC2)cc1	4	.	15	0	4	-1	0	i
O=C(CCCc1cccs1)N1CCN(S(=O)(=O)c2ccccc2Br)CC1	-5	-11	-10	-3	-3	-2	-34	i
Cc1ccccc1C(=O)Nc1nnc([C@@H]2C[C@H](O)[C@@H](CO)O2)s1	.	-5	.	-2	2	.	-10	.
Cc1ccc(NC(=O)CCCC2CCCCC2)c(O)c1	0	6	-1	3	0	12	-20	i
CCN(CC)CCNc1ccc(CO)c2oc3ccccc3c(=O)c12	.	10	.	12	1	.	-2	.
COc1ccc(Br)cc1C(C[N+](=O)[O-])c1c(N)n(C)c(=O)n(C)c1=O (stereo not drawn)	1	.	4	-16	-10	83*	3	i
O=C(NCc1ccncc1)C1CCN(S(=O)(=O)c2ccc(Cl)c(C(F)(F)F)c2)CC1	.	-6	.	-5	-8	.	-14	.
O=C(CCCOc1ccccc1)Nc1ncccn1	-7	.	3	6	2	.	-13	i
O=C(O)c1cccc([N+](=O)[O-])c1C(=O)Nc1cccc2ccccc12	11	-22	15	0	3	6	8	i
COc1ccc(/C=c2\sc3nc(-c4ccccc4OC)nn3c2=O)c(OC)c1	-1	-23	-6	-171	-77	9	-189	i
O=[N+]([O-])c1cc2c(cc1CN1CCN(c3ccccc3)CC1)OCO2	-6	-7	1	1	-2	0	0	i
N#C/C(=C/c1ccc(N2CCCCC2)o1)c1cccc(F)c1	87*	-9	86*	-64	15	11	.	i

Structures shown so far with fluorine, in the order listed:
SMILES	eIF4H inh	Yeast UUG start	PABP polyA inh	MT1-MMP act inh	MT1-MMP act inh RFP	CSC inhib	HIV Env fusion	Rce1 inhib
O=C(/C=C/c1cccc(F)c1)NCc1ccc2c(c1)OCO2	10	-5	-3	-2	0	-11	19	i
COc1ccc(-c2cn[nH]c2-c2ccc(OCc3ccccc3F)cc2O)cc1OC	6	-27	11	6	-26	64	8	i
COc1ccc(NC(=O)[C@@H]2CCCN2S(=O)(=O)c2ccccc2F)cc1S(=O)(=O)N1CCCCC1	.	7	.	4	-6	-11	?	.
NC(=S)C(c1ccccc1)c1ncc(C(F)(F)F)cc1Cl (stereo not drawn)	-5	-23	3	2	2	-8	-9	i
CCC(C)NC(=O)c1cn(CC)c2cc(N3CCN(C(=O)c4ccco4)CC3)c(F)cc2c1=O (stereo not drawn)	.	-9	.	1	-1	-8	7	i
COc1ccc(C(=O)NC2CCCc3c2cnn3-c2cc(F)cc(F)c2)c(OC)c1OC (stereo not drawn)	8	23	2	-6	-2	26	-9	i
CCCN1CCN(C(=O)c2ccc(CS(=O)c3ccc(F)cc3)o2)CC1 (stereo not drawn)	-1	-18	-4	0	6	-8	2	i
COc1cccc(CC(=O)OCC(=O)N2CCN(c3ccc(F)cc3)CC2)c1	-5	12	1	2	3	-3	2	i
CCN1CCN(CCC(=O)Nc2ccc(F)c(F)c2)CC1	28	-9	-6	-3	7	-5	-34	.
COc1cccc(C2c3[nH]c4ccccc4c3CCN2C(=O)c2ccccc2F)c1OC (stereo not drawn)	-8	1	6	-8	-9	30	-9	i
O=C(NCc1ccncc1)C1CCN(S(=O)(=O)c2ccc(Cl)c(C(F)(F)F)c2)CC1	.	-6	.	-5	-8	.	-14	.
N#C/C(=C/c1ccc(N2CCCCC2)o1)c1cccc(F)c1	87*	-9	86*	-64	15	11	.	i

Source: PubChem
